Sa ugtP lethal = compounds lethal to S. aureus RN4220 ugtP deletion mutant | AID 1259309 | growth inhibition, % (no concentration beside the values) | OD600 growth, 16 h; some inactives read as strong as hits | 0.54% of 330,000 active;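 active = z-score under -3 and OD600 up to 0.15 on both plates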;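 note: plate controls were untreated wells for no effect and antibiotic for full effect; wells of about 80 µL received 100 nL stock; the first replicate is given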
BJeLR lethal = BJeLR cell viability loss; BJeLR (HRASV12) viability, CellTiter-Glo ATP luminescence, 48 h; reference of the scale not given here; inhibition, % (no concentration beside the values); 0.17% of 300,000 active; AID 1554;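 active = replicate mean above 50%; inconclusive = above 50% but judged a plate artefact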;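 note: 50 nL library stock added to about 25 µL; numbers are from one replicate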
PrP UTR inh = inhibition of PrP 5' UTR reporter expression; 0.35% of 340,000 active; inhibition, % (concentration not given with the values); AID 488862; cell-based PrP 5' UTR mRNA reporter, plate reader;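 active = every replicate at 50% or more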;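 note: 0 = median of the neutral control wells; tested in H4 reporter cells; numbers are from one replicate; inactives centre near -14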
Mtb hypoxia inh = reduces hypoxia-regulated biosensor signal in M. tuberculosis; M. tuberculosis hypoxia-regulated fluorescent reporter, fluorescence; fluorescence inhibition, % (concentration not given with the values); 0.1% of 300,000 active; AID 1159583;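 active = 35 to 45% if threefold the growth effect, above 45% if 1.5-fold the growth effect; inactive = the rest, general growth blockers included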;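 note: wells of about 50 µL received 100 nL stock; 0% = vehicle wells and 100% = reference inhibitor wells; whole bacteria with a GFP reporter of the hypoxia response; strong numbers were not always called active; many hits fall short of the cut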
Sa RN4220 lethal = kills Staphylococcus aureus RN4220; inhibition, % (concentration not given with the values); S. aureus RN4220 growth, OD600, 16 h; 0.33% of 330,000 active;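 active = z-score of -3 or lower and OD600 up to 0.18 on both plates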;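 note: plate controls were untreated cells for no effect and reference antibiotic for full effect; stock transfer was 100 nL into about 80 µL; one replicate is shown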
Autofluor counter = flagged as autofluorescent in microsphere protease counterscreen; compound autofluorescence counterscreen, microsphere flow cytometry; active compounds read high; fluorescence intensity (concentration not given with the values); 3.1% of 360,000 active;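 active = at least 3 SD above the mean of all compounds, about 16000 in these data; inconclusive = too few beads counted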;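 note: 100 nL of 1 mM stock went into each well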
Mtb hypoxia inh growth = further read-out of Mtb hypoxia inh, marked with its call; growth inhibition, %; measured here: M. tuberculosis growth (absorbance);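 0% = vehicle and 100% = reference antibiotic; read after six days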
Starred values were filed as active, the others as inactive; ? = inconclusive; . = not tested or not shown.

Below each compound – Sa ugtP lethal, BJeLR lethal, PrP UTR inh, Mtb hypoxia inh, Mtb hypoxia inh growth, Sa RN4220 lethal, Autofluor counter
- C=CCn1c(COc2cccc(C)c2)nnc1SCC(=O)c1c[nH]c2c(CC)cccc12
  -5, -18, -19, 1, 14, 0.5, 2595
- C[C@H]1O[C@@H](OC2CC[C@]3(C=O)[C@H]4CC[C@]5(C)[C@@H](C6=CC(=O)OC6)CC[C@]5(O)[C@@H]4CC[C@]3(O)C2)CC2OC(C)(C)OC21 (stereo partly specified)
  ., 69*, 84*, ., ., ., 3000
- Cc1cccc(/C(N)=N/OC(=O)c2ccc(F)cc2)c1
  9, -10, -77, 12, 4, 2.7, 2541
- Cc1ccnc(NCc2ccc(Br)cc2)c1
  6, 4, -24, -7, -1, 1.0, 3558
- CCCOc1ccc(C2c3c(oc4cc(C)c(C)cc4c3=O)C(=O)N2CCCN2CCOCC2)cc1 (stereo unspecified)
  7, -2, -13, ., ., -1.1, 5744
- Cc1cc(C(F)(F)F)nc(SCC(=O)Nc2ccccc2)n1
  -1, -2, -8, -1, 12, 3.3, 22832*
- CCOC(=O)c1nn(-c2ccccc2)c2nc(-c3ccc(OC)cc3)c(C#N)c(=O)n12
  9, -4, 4, 0, 5, 2.3, 2378
- O=C(CN1CCN(S(=O)(=O)c2cc(Cl)ccc2Cl)CC1)Nc1ccc2c(c1)OCCO2
  5, ., -21, ., ., -1.6, 2762
- COc1cccc(/C=C2\SC(=S)N(CC(=O)N(C)C3CCS(=O)(=O)C3)C2=O)c1 (stereo unspecified)
  3, 4, -2, 13, 8, 2.5, 5987
- CC[C@@]1(c2cccc(C)c2)C(=O)N(C(=O)OC)N1C(=O)OC
  ., -6, -10, ., ., ., 4107
- Cc1ccccc1NC(=O)CSc1nc(=O)n(CCN2CCOCC2)c2c1CCCC2
  2, -3, -9, 5, 2, 2.4, 5645
- CC(=O)c1ccc(N=Nc2c(C)[nH][nH]c2=O)cc1
  3, 4, -45, 5, 6, 12, 3498
- CCOc1cc(/C=C2\C(=N)N3N=C(N4CCCCC4)SC3=NC2=O)ccc1OC(=O)c1ccco1
  9, 12, -3, -1, 0, 4.8, 6088
- Cc1cc(NC(=O)c2cc(C)on2)no1
  0, 7, -61, 0, 6, 3.7, 23413*
- O=C(O)c1ccc(CN(c2ccccn2)S(=O)(=O)c2ccccc2)cc1
  6, -2, -29, 10, 3, 3.0, 6232
- O=C1Nc2ccc(F)cc2C12Nc1ccccc1-c1nnc(SCc3ccccc3F)nc1O2 (stereo unspecified)
  -5, 3, -28, -1, 0, -1.7, 8326
- COc1ccccc1CN1C[C@@H]2C[C@@H](c3ccc(Cl)cc3)N3CCC[C@@]23C1=O
  -2, -1, -26, 8, 8, 0.5, 8857
- CC1=CC(C)(C)N(C(=O)CNC2CCCC2)c2cc(C)ccc21
  0, -2, -14, 1, -9, 4.0, 4753
- CC(C)(C)n1nc2c(c1NC(=O)COc1ccccc1F)CS(=O)(=O)C2
  4, 6, -15, 2, 5, 11, 4436
- CCOC(=O)C1=C(C)OC(N)=C(C(=O)OC)C12C(=O)Nc1ccc(Br)cc12 (stereo unspecified)
  -8, -11, 4, 1, 5, 6.2, 6746
- O=C(COC(=O)/C=C/c1ccc(C(F)(F)F)cc1)Nc1ccc2[nH]c(=O)[nH]c2c1
  -4, ., -27, -18, -3, 2.0, ?
- Cc1ccc(N2C(N)=C(C#N)C(c3cccnc3)C3=C2CCCC3=O)cc1 (stereo unspecified)
  -1, -1, -7, 7, 8, -5.9, 3455
- CCC1CCc2sc(C(=O)NNC(=O)c3ccncc3)cc2C1 (stereo unspecified)
  1, 18, -17, 11, 1, 0.0, 5451
- CCCSc1ccc([C@@H]2[C@H]3C(=O)N(CC)C(=O)[C@H]3[C@]3(C(=O)OC)CCCCN23)cc1OC
  ., 3, -20, ., ., ., 6419
- O=C1NCN(CCO)CN1
  13, 3, -21, 12, 5, 6.2, 3691
- CCc1cc(-c2[nH]ncc2-c2nc3ccccc3n2C)c(O)cc1O
  8, 11, -14, 7, -3, 6.0, 3310
- Cc1cc(C)nc(NCC(O)CNc2ccccc2Cl)n1 (stereo unspecified)
  -4, 3, -15, 13, 11, 7.9, 7171
- Cc1nn(CC(C)C)c(Cl)c1C(=O)N(C)CC(=O)Nc1c(Cl)cccc1Cl
  14, -14, -11, 4, -7, 3.5, 4740
- Cc1cccc(-n2ccc(=O)c(C(=O)Nc3ccc(S(=O)(=O)Nc4nccs4)cc3)n2)c1
  2, 7, -3, 19, 24, 4.4, 4471
- NS(=O)(=O)c1ccc(CCNC(=O)CSc2nc3ccccc3c(=O)n2CCN2CCOCC2)cc1
  0, 5, -16, 4, 5, 3.1, 4233
- COc1ccc(C(C(=O)NCC2CCCO2)N(C(=O)Cn2nnc3ccccc32)c2ccc(NC(C)=O)cc2)cc1 (stereo unspecified)
  -1, -7, -8, -2, 1, 6.5, 3479
- CCOc1ccc(C(=O)Nc2cc(-c3nc4ccccc4[nH]3)ccc2C)cc1[N+](=O)[O-]
  9, 4, 47, ., ., 3.2, 2219
- CC(C)C(=O)NC(=S)NCC(=O)c1ccccc1
  3, -14, -27, 1, 3, -3.0, 4127
- COc1ccc(C(=O)C[N+]2(C)CCOCC2)cc1
  -3, 11, -23, 3, 14, 1.4, 3259
- COCCN(CC(=O)Nc1cccc(C)c1C)C(=O)C1(c2ccc(Cl)cc2)CCC1
  -3, ., -5, -4, -8, 2.8, 4164
- CC(=O)NC(Cc1ccccc1F)C(=O)NC1CCN(c2ncccc2[N+](=O)[O-])CC1 (stereo unspecified)
  11, 7, 12, -1, -2, 0.3, 5190
- CC(=NNS(C)(=O)=O)c1ccc2ccccc2c1
  -9, ., ., 10, 10, 3.7, .
- CCCn1c(O)c(CN2CCCCC2)c(C)c(C#N)c1=O
  7, -1, -8, 11, -1, 0.7, 2588
- CCC(CO)Nc1ccc(-c2n[nH]c(=O)c3ccccc23)cc1[N+](=O)[O-] (stereo unspecified)
  -15, -1, -10, -10, 4, 1.7, 3795
- CC1COc2ccccc2N1S(=O)(=O)c1cc(Cl)ccc1Cl (stereo unspecified)
  7, -12, -20, 0, 6, 4.8, 3316
- CCn1cc(S(=O)(=O)CC(=O)Nc2cc(C)ccc2C)c2ccccc21
  -5, 7, 11, 5, 3, 4.7, 5666
- Cc1onc(-c2ccccc2)c1C(=O)N1CCCN(C(=O)c2c(-c3ccccc3)noc2C)CC1
  7, -2, -12, 1, 10, 1.8, 4346
- COCc1nnc(NS(=O)(=O)c2ccc(Br)cc2)s1
  -1, 16, -5, 3, 0, 5.3, 9972
- COc1ccc(/C=C/C2=CCN(C)CC2)cc1
  9, -2, -40, 13, 4, 2.4, 4068
- Cc1ccc(NCc2ccccc2F)cc1
  7, 5, -20, 8, 2, 1.7, 2511
- CSc1ccc(S(=O)(=O)NCc2ccccc2)cc1
  -7, 2, -2, 1, 13, 1.5, 22207*
- COc1ccc(C)c2sc(N(CCN(C)C)C(=O)/C=C/c3cccs3)nc12
  ., 4, -14, ., ., ., 4700
- CNC(=S)NN=Cc1c(C)cccc1Cl
  9, ., ., 12, 5, 2.0, .
- OC(COc1ccc(F)cc1Cl)CN1CCC(Cc2ccccc2)CC1 (stereo unspecified)
  -2, -2, 4, -3, 4, 1.4, 3859
- FC(F)(F)c1cc(Oc2ccccc2Cl)nc(-c2ccccn2)n1
  5, -3, -22, 11, 10, -3.9, 21573*
- CCCCc1c(O)n2c(nc3ccccc32)[nH]c1=O
  -4, 6, -5, ., ., 3.9, 5298
- COc1cc(C(=O)ON=C2C=C(C)C(=O)C=C2C)cc(OC)c1OC
  -6, ., ., 8, -13, -3.6, .
- COc1ccc(-n2c(SCC(=O)Nc3ccc(NC(C)=O)cc3)nc3c([nH]c4ccccc43)c2=O)cc1OC
  4, -2, 7, -1, 1, 13, 4692
- O=C(N/N=C\c1ccc2c(c1)OCO2)c1cncc(Br)c1
  ., -3, -19, ., ., ., 5543
- Cc1ccc(C(=O)Nc2nc(-c3cccnc3)cs2)o1
  -18, 17, -7, 8, 1, -0.1, 2350
- CCCc1cc(=O)[nH]c(SCC(=O)c2ccc3c(c2)OCCO3)n1
  -10, 15, -17, 4, 7, 10, 9581
- O=C(Oc1ccccc1F)C1CCN(C(=O)c2ccc(F)cc2)CC1
  6, 4, -11, 3, 2, 1.1, 5900
- Cc1ccc(C(=O)c2cn(-c3ccc(F)c(Cl)c3)nn2)cc1
  11, 3, -26, 10, 2, 6.1, 16069
- O=S(=O)(NCCN1CCCC1)c1ccc(Br)cc1
  6, -5, -15, 24, 8, 0.6, 3136
- Nc1nc(N2CCN(C(c3ccccc3)c3ccccc3)CC2)n[nH]1
  79, -1, 8, 13, -1, -6.3, 3380

Record cards (already shown). Screens in order: Sa ugtP lethal, BJeLR lethal, PrP UTR inh, Mtb hypoxia inh, Mtb hypoxia inh growth, Sa RN4220 lethal, Autofluor counter
Cc1cc(NC(=O)c2cc(C)on2)no1 in the list: 0, 7, -61, 0, 6, 3.7, 23413*
CCCSc1ccc([C@@H]2[C@H]3C(=O)N(CC)C(=O)[C@H]3[C@]3(C(=O)OC)CCCCN23)cc1OC in the list: ., 3, -20, ., ., ., 6419

Further records follow:
Below each compound – Sa ugtP lethal, BJeLR lethal, PrP UTR inh, Mtb hypoxia inh, Mtb hypoxia inh growth, Sa RN4220 lethal, Autofluor counter
- N#Cc1c(N)nc2c(c1N)CC(C(F)(F)F)O2 (stereo unspecified)
  -1, -4, -48, 1, 8, 3.7, 4377
- CC(Nc1ccc(Br)cc1)C(=O)NN=Cc1ccccc1OCc1ccccc1 (stereo unspecified)
  -19, ., ., 0, 4, -8.4, .
- CN(CC1CCCO1)S(=O)(=O)c1ccc(C(=O)Nc2nc3cc4c(cc3s2)OCO4)cc1 (stereo unspecified)
  -12, 1, -6, 2, 14, -5.5, 4314
- CCN(CC(=O)Nc1ccc(Cl)c(C(F)(F)F)c1)CC(=O)NC1CCS(=O)(=O)C1 (stereo unspecified)
  4, 13, -8, -4, -4, -4.0, 3910
- CCC(C)Nc1nc(CN2CCOCC2)nc2sc3c(c12)CCC3 (stereo unspecified)
  2, -3, -4, 8, 10, 6.7, 3836
- N=c1oc2ccc(Br)cc2cc1C(=O)NCc1ccc(F)cc1
  2, -14, -17, 8, 14, 0.7, 5988
- O=C(Oc1ccc(Cl)c2cccnc12)N1CCOCC1
  -5, -9, -12, 2, 5, 6.6, 10382
- COC(=O)C1CCC(C)C(c2ccc(C)cc2)N1C(=O)c1ccc(C=NOC(C)c2cn(C(CO)Cc3ccccc3)nn2)cc1 (stereo unspecified)
  -21, ., ., -2, 10, 4.0, .
- C=CCOc1ccc(C(c2c(O)nc(SC)[nH]c2=O)c2c(O)nc(SC)[nH]c2=O)cc1
  2, -10, -10, 0, 3, 2.4, .
- O=C(Nc1ccc(Cn2cccn2)cc1)c1ccc(COc2cccc(Br)c2)cc1
  -3, -6, -61, ., ., 0.4, 4642
- CNc1nc(Nc2ccccc2)nc(OCC(F)(F)F)n1
  -5, 5, 3, 0, 1, 2.7, 1894
- COc1ccc(S(=O)(=O)NCC(=O)N(CC(=O)NCc2ccco2)Cc2ccc(F)cc2)cc1
  11, -1, -6, -7, -3, -1.1, 5511
- CCOC(=O)CCc1nc2ccccc2[nH]c1=O
  3, 4, -7, 8, 9, 5.0, 4528
- N#Cc1ccccc1S(=O)(=O)Nc1ccc2c(c1)OCCO2
  6, -7, -28, 10, 5, -0.2, 3685
- O=C(COc1ccc(F)cc1)Nc1nc(-c2ccccn2)cs1
  -5, -10, -16, 16, 4, 6.5, 5959
- CSc1nnc(C2CCN(CC(=O)Nc3ccccc3N3CCOCC3)CC2)n1C
  -3, 2, -29, 10, 1, 2.4, 4110
- C(=Nc1ccc(Nc2ccccc2)cc1)c1ccc2ccccc2c1
  -7, ., -8, 7, 3, 7.5, 2495
- O=c1n(-c2cccc(Cl)c2)c(=O)n2n1CCC2
  9, -1, -2, 1, 0, 1.4, 5644
- COc1ccc(CNC(=O)CS(=O)Cc2nc(-c3ccc(C)cc3)oc2C)cc1 (stereo unspecified)
  -3, 11, -6, -6, 1, -2.0, 6630
- Cc1ccc(C)c(N2CCN(C(=O)c3ccc(CS(=O)Cc4ccc(Cl)cc4)o3)CC2)c1 (stereo unspecified)
  49, 8, -11, 2, 0, -2.9, 4136
- CCOC(=O)Cc1csc(NC(=O)COc2ccc(N(C)S(=O)(=O)c3cccs3)cc2)n1
  -5, 13, -3, 8, 2, -15, 2830
- O=C(Nc1cccc(S(=O)(=O)NC2=NCCCCC2)c1)c1ccc(Cl)cc1
  6, ., -47, 5, 9, 6.7, 6262

High-throughput results as filed in PubChem BioAssay.
